# Bioassay records deposited in PubChem BioAssay by several laboratories.
# FPRL1 ligand – ligands of human FPRL1, also counter-screen for FPR ligands. P25090. FPRL1-expressing cells, fluorescent ligand binding inhibition, flow cytometry. inhibition, %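 (tested at 6.7 µM)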. 24,000 tested, 0.3% active. AID 441;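 note: 0% = buffer alone and 100% = receptor blocker peptide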
# Target sequence (P25090 whole entry, looked up): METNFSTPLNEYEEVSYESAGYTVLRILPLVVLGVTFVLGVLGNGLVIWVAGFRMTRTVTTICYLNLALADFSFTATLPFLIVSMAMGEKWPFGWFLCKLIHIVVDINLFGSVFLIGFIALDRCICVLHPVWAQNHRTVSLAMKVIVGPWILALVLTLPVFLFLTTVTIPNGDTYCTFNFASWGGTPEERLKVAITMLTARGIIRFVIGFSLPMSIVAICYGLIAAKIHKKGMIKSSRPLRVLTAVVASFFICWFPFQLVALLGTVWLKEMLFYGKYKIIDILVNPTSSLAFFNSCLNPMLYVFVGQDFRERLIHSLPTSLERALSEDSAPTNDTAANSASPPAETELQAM
# FPR binder – binds the human formylpeptide receptor FPR | AID 440 | P21462 | FPR-expressing cells, fluorescent ligand binding, flow cytometry | 24,000 tested, 0.74% active | inhibition, %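 (tested at 6.7 µM)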;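 note: 0% = buffer wells and 100% = receptor blocker peptide wells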
# Target sequence (P21462 whole entry, looked up): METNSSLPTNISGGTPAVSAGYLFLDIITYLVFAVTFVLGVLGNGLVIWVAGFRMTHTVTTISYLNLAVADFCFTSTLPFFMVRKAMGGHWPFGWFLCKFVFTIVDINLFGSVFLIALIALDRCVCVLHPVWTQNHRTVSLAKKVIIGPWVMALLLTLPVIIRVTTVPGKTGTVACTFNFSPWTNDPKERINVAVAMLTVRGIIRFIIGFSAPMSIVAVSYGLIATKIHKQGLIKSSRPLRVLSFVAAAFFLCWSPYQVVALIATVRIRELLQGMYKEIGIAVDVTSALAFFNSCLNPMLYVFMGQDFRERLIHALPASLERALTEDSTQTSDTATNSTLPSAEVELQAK
# VCAM-1 imaging – suppression of endothelial VCAM-1 upregulation – imaging, high-content imaging, pooled HUVEC, TNFa stimulus (AID 456). HUVEC TNFa-induced VCAM-1 surface expression, immunofluorescence imaging; numbers were filed only for top-ranked candidate wells. inhibition, % at 5 µM; hits with a dose series show IC50 in µM. 10,000 tested, 0.2% active;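 active = top tenth filtered wells with inhibition above zero that passed visual or statistical confirmation; inactive = the rest, including hits rejected on review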;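 note: 0% = stimulated vehicle wells and 100% = unstimulated cells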
# VCAM-1 down – suppression of endothelial VCAM-1 upregulation – cell-based, plate reader, pooled HUVEC, TNFa stimulus (AID 454). HUVEC TNFa-induced VCAM-1 surface immunofluorescence, plate reader; numbers were filed only for top-ranked candidate wells. inhibition, % at 5 µM. 10,000 tested, 0.2% active;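 active = compound among top-ranked inhibitors of TNF-induced VCAM-1 adhesion protein staining, with the hit upheld by image or statistical review; inactive = the rest, including hits rejected on review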;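 note: 0% = TNFa with vehicle and 100% = cells without TNFa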
# VCAM-1 augmentation – enhancers of VCAM-1 display on endothelial cells, imaging, high-content imaging, pooled HUVEC, TNFa stimulus (AID 457); 10,000 tested, 0.2% active; Pooled HUVEC, TNFa-induced VCAM-1 immunofluorescence imaging; hits of this screen are not shown here; calls only;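 active = a top-ranked rise in VCAM-1 staining upheld on image or statistical review; inactive = the rest, including candidates rejected on review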;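 note: compounds tested at 5 µM in the well; cells exposed to compound for 24 hours before fixing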
# Active calls of the source: *; i = inactive; / = not tested or not shown.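 Rule for the calls, unless noted: active = mean above 30%; inconclusive = self-fluorescent; inactive = the rest.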
No.	Molecule	FPRL1 ligand	FPR binder	VCAM-1 imaging	VCAM-1 down	VCAM-1 augmentation
1	Cc1ccc(-c2nc(CS(=O)CC(=O)NCCC(C)C)c(C)o2)cc1 (stereo not drawn)	-4	0	/	/	/
2	CC(C)CNc1nc(Oc2ccc(=O)n(-c3ccccc3)n2)nc(N2CCOCC2)n1	7	3	/	/	/
3	N#Cc1c(-c2ccccc2)nc(N2CCOCC2)[nH]c1=O	-5	5	/	/	/
4	O=C(OCC(=O)c1cccs1)C1=COCCO1	7	1	i	i	i
5	COc1ccc(Cc2nc3ccc(S(N)(=O)=O)cc3[nH]2)cc1OC	0	1	i	i	i
6	CCCn1c(SCC(=O)N2CCN(c3ccccc3)CC2)nc2ccccc2c1=O	-2	-6	i	i	i
7	CCOc1ccc2nc(NC(=O)CSc3nnnn3C3CCCCC3)sc2c1	3	0	i	i	i
8	CCOC(=O)N1CCN(Cc2ccccc2F)CC1	2	-3	i	i	i
9	COCCNC(=O)C(c1ccc(C)o1)N(Cc1ccc(F)cc1)C(=O)Cn1nnc2ccccc21 (stereo not drawn)	-1	3	i	i	i
10	O=C(Cn1c(=O)n(Cc2ccc3c(c2)OCO3)c(=O)c2ccccc21)N1CCCc2ccccc21	-13	-3	i	i	i
11	Cc1c(C(=O)Nc2ccc(F)cc2)oc2ccc(S(=O)(=O)N3CCCC3)cc12	12	-12	/	/	/
12	Cc1cc(C)n2c(SCC#N)nnc2n1	3	-4	/	/	/
13	CCOC(=O)c1[nH]c2ccccc2c1NC(=O)C(C)(C)C	-2	-7	i	i	i
14	COc1ccc(OC)c(C2C(C#N)=C(N)Oc3cc(C)[nH]c(=O)c32)c1 (stereo not drawn)	-3	-2	i	i	i
15	COc1ccc2c(-c3cccnc3)cc(=O)[nH]c2c1	2	1	i	i	i
16	Cc1ccc2[nH]c3c(c2c1)CCC3=O	4	-2	/	/	/
17	COc1ccc(-c2nnc(SCC#N)o2)cc1	-3	-4	i	i	i
18	Cc1ccc(N2C(N)=NC(N)=NC23CCCC3)c(C)c1	-3	4	i	i	i
19	COc1ccc(NC(=O)CSc2nc3ccccc3c(=O)n2CCC(=O)N2CCCCC2)cc1	5	9	/	/	/
20	COc1ccc(NC(=O)CCc2nc(-c3ccc(C)cc3)no2)cc1Cl	-2	1	/	/	/
21	CCc1nnc(NC(=O)CSc2nnc(-c3cc4ccccc4cc3O)n2CC)s1	-6	27	i	i	i
22	CCC(=O)NC(C)C(c1cccs1)N1CCOCC1 (stereo not drawn)	-1	-2	/	/	/
23	COC(=O)c1[nH]c2ccc(F)cc2c1NS(=O)(=O)c1ccc(OC)cc1OC	-4	5	i	i	i
24	CCOc1ccc(NS(=O)(=O)c2ccc3c(c2)CCN3C(=O)CCC(=O)O)cc1	-2	-5	/	/	/
25	Cc1ccc(S(=O)(=O)N2CCN(C(=O)CN3CCOCC3)C2C(C)C)cc1 (stereo not drawn)	-2	1	i	i	i
26	CC(=O)Nc1cccc(OCC(O)Cn2cnc3ccccc32)c1 (stereo not drawn)	6	5	i	i	i
27	CCc1nnc(NC(=O)C2CCN(c3nccc(C)n3)CC2)s1	1	3	i	i	i
28	CC(=O)NC(CCS(C)(=O)=O)C(=O)Nc1ccc2c(c1)OCCO2 (stereo not drawn)	5	-4	/	/	/
29	COc1nc2c(s1)C(=O)NCCC2	-1	-2	/	/	/
30	CC1C(=O)C(C)C(c2cccs2)NC1c1cccs1 (stereo not drawn)	4	7	i	i	i
31	COc1ccc2cc(CN(CCO)C(=O)c3ccccc3F)c(=O)[nH]c2c1	4	-2	i	i	i
32	CCOC(=O)c1cccc(NC(=O)CCn2cccc2)c1	1	1	/	/	/
33	O=c1oc(-c2ccco2)nc2ccccc12	4	1	i	i	i
34	Cc1cc(N2C(=O)CC(N3CCN(c4ccc(C(=O)c5cccs5)cc4)CC3)C2=O)no1 (stereo not drawn)	-7	7	i	i	i
35	O=C(O)c1cc(-c2ccco2)nc2ccc(Br)cc12	1	5	/	/	/
36	C=CCn1c(CCNC(=O)C(C)(C)C)nc2ccccc21	-3	-8	/	/	/

# Of the compounds above, these contain a COOH group.
No.	Molecule	FPRL1 ligand	FPR binder	VCAM-1 imaging	VCAM-1 down	VCAM-1 augmentation
24	CCOc1ccc(NS(=O)(=O)c2ccc3c(c2)CCN3C(=O)CCC(=O)O)cc1	-2	-5	/	/	/
35	O=C(O)c1cc(-c2ccco2)nc2ccc(Br)cc12	1	5	/	/	/

# Carrying on:
No.	Molecule	FPRL1 ligand	FPR binder	VCAM-1 imaging	VCAM-1 down	VCAM-1 augmentation
37	CCn1cc(C(=O)O)c(=O)c2cc(F)c(N3CCNCC3)cc21	-2	-4	i	i	i
38	COc1ccc(OC)c(NC(=O)CSc2ncccc2C(=O)O)c1	6	15	i	i	i
39	CC(C)COC(=O)N(C)c1ccc(C(O)(C(F)(F)F)C(F)(F)F)cc1	-6	-4	i	i	i
40	COCCNc1nc(SCC(=O)N2CCN(c3ccccc3)CC2)nc2ccccc12	-4	0	i	i	i
41	Cc1cn([C@H]2C[C@H](N=[N+]=[N-])[C@@H](CO)O2)c(=O)[nH]c1=O	-1	0	i	i	i
42	CCCS(=O)(=O)N1CCCC(C(=O)NCCc2ccc(Cl)cc2)C1 (stereo not drawn)	-3	-3	/	/	/
43	CC(NC(=O)c1ccccc1NC(=O)c1ccco1)c1ccccc1 (stereo not drawn)	10	2	/	/	/
44	CCc1ccc(C2CC(c3ccccc3)n3ncnc3N2)cc1 (stereo not drawn)	9	20	i	i	i
45	CC1(C)OC(=O)C(=CNc2cccc(O)c2)C(=O)O1	-1	-8	/	/	/
46	O=C(CCS(=O)(=O)c1ccc(Br)cc1)N1CCN(Cc2ccccc2)CC1	-1	6	/	/	/
47	CC(CN1c2ccccc2Sc2ccccc21)N(C)C (stereo not drawn)	4	-4	i	i	i
48	COc1ccc(C(=O)N2CCC(C(=O)NCc3ccccn3)CC2)cc1	-4	-2	/	/	/
49	Cc1cc(Nc2cc(F)ccc2C)n2ncnc2n1	-2	-4	/	/	/
50	CC(=O)c1cc(-c2ccc(F)cc2)n(CCC(=O)Nc2cc(C)[nH]n2)c1C	-1	0	i	i	i
51	Cc1cc(C)nc(SCc2nnc(SCc3ccccc3Cl)o2)n1	-2	1	i	i	i
52	O=CN1CC(=O)N(c2ccccc2)c2c([nH]c3ccccc23)C1	-1	2	/	/	/
53	CCOC(=O)c1sc(NC(=O)CSc2nnc(-c3ccco3)n2CC)c(C(=O)OCC)c1C	-11	6	i	i	i
54	CC(=O)O[C@H]1C[C@@H]2CC[C@@H]3[C@H](CC[C@@]4(C)[C@H]3C[C@H]([N+]3(C)CCCCC3)[C@@H]4OC(C)=O)[C@@]2(C)C[C@@H]1[N+]1(C)CCCCC1	4	-1	i	i	i
55	CCOC(=O)/C(C#N)=C(/C)c1ccc(OC)cc1	2	-7	i	i	i
56	COc1ccc(NC(=O)CN2CCN(CC(=O)Nc3ccccc3Cl)CC2)cc1Cl	3	1	/	/	/
57	c1ccc(-c2cnc(CSc3ncnc4sccc34)o2)cc1	-7	16	i	i	i
58	Cc1noc(C)c1S(=O)(=O)NC1CCCc2ccccc21 (stereo not drawn)	-9	4	/	/	/
59	Cc1ccc(-c2cc(C(F)F)nc(NCC3CCCO3)n2)cc1 (stereo not drawn)	2	1	i	i	i
60	O=C(CSC1=NCCS1)NCc1ccco1	3	-2	i	i	i
61	Cc1ccc2c(c1)N(CC(=O)Nc1ccc3c(c1)OCCO3)C(=O)CO2	-3	-15	i	i	i
62	COc1ccc(C(CNC(=O)CN2C(=O)NC3(CC(C)CC(C)(C)C3)C2=O)N2CCOCC2)cc1 (stereo not drawn)	6	-2	i	i	i
63	O=C(c1cc2n(n1)C(C(F)(F)F)CC(c1ccc(Cl)cc1)N2)N1CCCC1 (stereo not drawn)	-5	1	i	i	i
64	O=C(NCCC1=CCCCC1)C1CCN(S(=O)(=O)c2cccc3nsnc23)CC1	-1	3	i	i	i
65	CC(C)C(NS(=O)(=O)c1ccc2c(c1)oc(=O)n2C)C(=O)N1CCN(c2ccccc2F)CC1 (stereo not drawn)	-3	-4	/	/	/
66	CCC(Sc1nc2n[nH]c(C)c2c(=N)n1-c1cc(Cl)ccc1C)C(=O)N1CCOCC1 (stereo not drawn)	2	1	76%	i	i
67	CCOC(=O)N1CCC(NC(=O)C2CCN(S(=O)(=O)N3CCC(C)CC3)CC2)CC1	1	-2	/	/	/
68	CCOCCCNC(=O)C1CCN(S(=O)(=O)N2CC(C)CC(C)C2)CC1 (stereo not drawn)	1	-4	/	/	/
69	O=C(CSc1n[nH]c(-c2cccs2)n1)N1CCN(S(=O)(=O)c2ccccc2)CC1	3	2	i	i	i
70	CCc1c(C)c2ccc(OCC(=O)OC)cc2oc1=O	0	-14	i	i	i
71	CN(C)C(=O)CSc1nnc(-c2cccnc2)n1-c1ccccc1	4	1	/	/	/
72	O=C(CSc1nnc(-c2ccccc2Br)o1)Nc1cccc2ccccc12	11	-2	i	i	i

# Continued.
# Each structure is followed by: FPRL1 ligand, FPR binder, VCAM-1 imaging, VCAM-1 down, VCAM-1 augmentation
(73) Fc1ccc(N2CCN(c3nc(-c4ccco4)cc(C(F)(F)F)n3)CC2)cc1
  -8, -6, /, /, /
(74) O=C(CN1CCCN(S(=O)(=O)c2ccc(F)cc2)CC1)Nc1ccccc1Br
  -1, 1, i, i, i
(75) Cc1ccc(S(=O)(=O)N2CCC(C(=O)NCCN3CCCCCC3)CC2)cc1
  1, -1, i, i, i
(76) Cc1cn(CC2COC(C)(C)O2)c(=O)[nH]c1=O (stereo not drawn)
  -5, 0, /, /, /
(77) COc1cc(NC(=O)CSCc2cnn(-c3ccccc3)c2-n2cccc2)cc(OC)c1
  2, 1, i, i, i
(78) CCCN1C(=O)c2cc(C(=O)NCc3cccs3)ccc2C1O (stereo not drawn)
  13, 1, /, /, /
(79) CC(CCc1ccco1)NC(=O)Cn1ncc2c(=O)oc3ccccc3c21 (stereo not drawn)
  1, -3, /, /, /
(80) CC(C)=C1C2CC2C2C(C(=O)O)C12 (stereo not drawn)
  3, 2, /, /, /
(81) CC(=O)NC(CCS(C)(=O)=O)C(=O)Nc1cccc(C(C)=O)c1 (stereo not drawn)
  4, 1, /, /, /
(82) Oc1c(CN2CCOCC2)cc(COCc2ccccc2)c2cccnc12
  0, -2, /, /, /
(83) COc1ccc(C)cc1NC(=O)c1cc2c(CO)cnc(C)c2oc1=N
  0, -3, /, /, /
(84) CCOC(=O)c1c(C)oc2c1c(C=NCc1ccccn1)c(O)c1ccccc12
  -39, -4, i, i, i
(85) CCCOc1ccc(N)cc1N
  -16, -4, /, /, /
(86) CC1Cn2c(COc3ccccc3)nnc2S1 (stereo not drawn)
  2, -4, /, /, /
(87) O=C(CN1C(=O)C2CCCN2c2ncc(Cl)cc21)NCc1ccc2c(c1)OCO2 (stereo not drawn)
  3, 0, /, /, /
(88) O=C(CCN1C(=O)COc2ccccc21)NCCCN1CCN(c2ccccc2F)CC1
  -1, 0, i, i, i
(89) O=C(Nc1ncc(Br)s1)C(Cc1ccccc1)n1cccc1 (stereo not drawn)
  -23, 10, /, /, /
(90) O=C(NC1CCCC1)C1CC(c2ccc(F)cc2)=NO1 (stereo not drawn)
  -2, 8, /, /, /
(91) O=C1C(C=Nc2ccccc2O)=C(O)c2ccccc21
  -10, 7, /, /, /
(92) CC1CC(C)CN(CCCNC(=O)C2CCC(=O)N2C2CCCC2)C1 (stereo not drawn)
  8, -5, /, /, /

# A second format for two compounds above.
(86) CC1Cn2c(COc3ccccc3)nnc2S1 (stereo not drawn)
(87) O=C(CN1C(=O)C2CCCN2c2ncc(Cl)cc21)NCc1ccc2c(c1)OCO2 (stereo not drawn)
Compound	86	87
FPRL1 ligand	2	3
FPR binder	-4	0
VCAM-1 imaging	/	/
VCAM-1 down	/	/
VCAM-1 augmentation	/	/

# Two successive compounds out of the list so far, for reference:
# Each structure is followed by: FPRL1 ligand, FPR binder, VCAM-1 imaging, VCAM-1 down, VCAM-1 augmentation
(87) O=C(CN1C(=O)C2CCCN2c2ncc(Cl)cc21)NCc1ccc2c(c1)OCO2 (stereo not drawn)
  3, 0, /, /, /
(88) O=C(CCN1C(=O)COc2ccccc21)NCCCN1CCN(c2ccccc2F)CC1
  -1, 0, i, i, i

# The list goes on:
# Each structure is followed by: FPRL1 ligand, FPR binder, VCAM-1 imaging, VCAM-1 down, VCAM-1 augmentation
(93) CSCCC(NC(=O)c1ccco1)C(=O)OC(C)C(=O)NC(=O)NC1CCCCC1 (stereo not drawn)
  -6, -1, i, i, i
(94) COc1cccc(-c2nc(CS(=O)CC(=O)NCc3ccccc3Cl)c(C)o2)c1 (stereo not drawn)
  1, 4, /, /, /
(95) COc1cc2[nH]c(=S)n(Cc3ccc(C)o3)c(=O)c2cc1OC
  0, 4, /, /, /
(96) O=C(Cn1ncc2ccccc21)N1CCc2ccccc21
  0, 4, /, /, /

# The list is partial (hit frequency here may not be typical).
